# Screening results as filed in PubChem BioAssay.
# VACV mCherry inh: vaccinia inhibition (mCherry reporter); AID 720579; Potency, µM (titrated, usually from 36.5 µM), inactives show at the top dose activity change, negative = inhibition, hits mostly inhibitors; 310,000 tested, 0.63% active; Vaccinia virus mCherry reporter infection, fluorescence; about a quarter of the inactives have no number; active = well fitted inhibition curve with a large enough effect; inconclusive = small, poorly fitted or top-dose-only effect; inactive = no such curve, though single readings can be large or run the other way; tested in A549 cells; also: nearly all actives have a fitted effect of over 35% in size; inactives centre near -10
# Vaccinia Venus: inhibitors of vaccinia virus (Venus reporter) | Potency, µM (titrated, usually from 36.5 µM), for inactives: at the highest dose activity change, negative = inhibition, most hits filed as inhibitors | 330,000 tested, 0.46% active | Vaccinia virus Venus reporter expression, fluorescence | AID 720580; active means well fitted inhibition curve with a large enough effect; inconclusive means small, poorly fitted or top-dose-only effect; inactive means no such curve, though single readings can be large or run the other way; tested in A549 cells; also: nearly all actives have a fitted effect of over 30% in size; inactives centre near -10
# An asterisk follows results filed as active; i = inactive; ? = inconclusive; · = no result given; & = joins results of further samples; [ ] = dose if it differs, or a comment. % is scaled to controls: 0 for no effect and ±100 for the full control effect; potency is read from the fitted curve at half-maximal effect.
Compound,VACV mCherry inh,Vaccinia Venus
O=C(CSc1nc(C2CC2)nc2ccccc12)Nc1ccccc1,-7%,-22%
COCCCn1c(=O)/c(=C\c2ccccc2OC(F)F)s/c1=C(/C#N)C(=O)NC(C)C,i,-11%
COc1ccc(Cn2c(C(=O)O)c(CNCc3ccc(OC)cc3OC)c3ccc(C)cc32)cc1,?,?
C=CSc1sc(Cl)c(N2CCOCC2)c1[N+](=O)[O-],-12%,-8%
COc1cccc(-c2noc(CCC(=O)NCC3CCCO3)n2)c1 (stereo not given),-12%,-11%
CC(C)C(C(=O)NCC1CCCO1)N(Cc1ccccc1)C(=O)CNS(=O)(=O)c1ccccc1 (stereo not given),-9%,-12%
N#Cc1ccc(-c2nc3c(Cl)cc(C(F)(F)F)cn3c2Cc2ccsc2)cc1,24%,-1%
O=C(COC(=O)c1ccccc1Br)Nc1cc(S(=O)(=O)N2CCOCC2)ccc1N1CCCC1,-19%,-12%
CC(=O)Nc1cccc(NC(=O)c2cccc(S(=O)(=O)N3CCN(Cc4ccccc4)CC3)c2)c1,-18%,-13%
CCOc1ccc(C(=O)N2CCC(c3ccncc3)CC2)cc1,-22%,-24%
CCOC(=O)C(=O)Nc1ccccc1C(=O)OCC,2%,-9%
COCCOC(=O)c1cc(C(=O)c2cc(Cl)ccc2O)coc1=N,-18%,8%
CCOc1ccc(NC(=O)CCN2C(=O)C3CCCCC3C2=O)cc1OCC (stereo not given),i,-13%
O=C(O)CNC(=O)C12CC3CC(CC(Cl)(C3)C1)C2,-14%,-5%
COc1ccc(/C=C(/NC(=O)c2cccs2)C(=O)NC(C)(C)C)cc1OC,-15%,-4%
O=C(Nc1ccc(F)cc1)C1CCCN(S(=O)(=O)c2ccc(-n3cnnn3)cc2)C1 (stereo not given),i,-6%
Nc1ccc(O)cc1C(=O)OCC(=O)c1ccc(C2CCCCC2)cc1,?,-23%
O=S(=O)(NC1=NCCC1)c1cccc(NS(=O)(=O)c2ccc(OC(F)(F)F)cc2)c1,-3%,-7%
CCc1nnc(NC(=O)c2sc3nc4c(cc3c2N)CCCCCC4)s1,?,?
Cc1cccc(C(=O)NCc2nnc(SCC(=O)Nc3nnc(C)s3)n2C)c1,i,-12%
CC(C)c1ccc(NC(=O)C2Cc3c(-c4ccco4)ccnc3O2)cc1 (stereo not given),4%,-10%
CN(Cc1ccccc1)C(=O)[C@@H]1CCCN1C(=O)[C@@H]1CCCN1C(=O)c1cccc(Cl)c1,-12%,0%
COc1ccc(OC)c(NC(=O)c2oc3c(c2C)C(O)CC(C)(C)C3)c1 (stereo not given),-12%,-13%
Cc1cc(=O)oc2cc(OCCCC[n+]3ccccc3)ccc12,-2%,-5%
COCCNC(=O)C1(C)CCCN(C(=O)c2cccc3ccccc23)C1 (stereo not given),i,-6%
CC1(C)CC(=O)c2sc(NC(=O)c3ccc4ncsc4c3)nc2C1,14%,-5%
CCN(CC)S(=O)(=O)c1ccc(OCC(=O)NCc2ccccc2)cc1,-22%,-11%
CCOC(=O)COc1ccc2cc(C(=O)OCC)c(=O)oc2c1,i,1%
COC(CNC(=O)C1CC(=O)N(CCc2ccccc2)C1)OC (stereo not given),-7%,-3%
CCOC(=O)C1CCN(C(=O)c2ccc(OC3CCN(C(=O)CCOC)CC3)cc2)CC1,0%,3%
O=C(NCN1CCN(c2ccccn2)CC1)c1cnccn1,·,-10%
COc1ccc2cc(C(=O)NCc3ccc4c(c3)CCN4C(=O)c3ccc(F)cc3)[nH]c2c1,-14%,-9%
O=C(CCN1C(=O)/C(=C\c2cccs2)SC1=S)NC1=NCCS1,i,-11%
CCOc1ccc(N(CC(=O)NC2CCCC(C)C2C)S(=O)(=O)c2c(C)noc2C)cc1 (stereo not given),i,-7%
CC(C)CN1CCC(=O)N([C@H](COc2ccccc2)Cc2ccccc2)CC1,0%,-14%&-10%
COc1ccc(S(=O)(=O)Nc2nnc(C(C)C)s2)cc1,-9%,-7%
CCOC(=O)c1cccc(NC(=O)C2CCN(S(=O)(=O)c3cn(C)cn3)CC2)c1,-13%,-5%
Cc1ccccc1C(=O)NNC(=O)CCCCC(=O)NNC(=O)c1ccccc1C,i[7.34 µM],-2%[7.34 µM]
CCC(C)n1nnc2c(=O)oc3ccccc3c21 (stereo not given),-10%,-3%
CN(C(=O)c1ccc(NC(=O)Cc2cccc(NC(=O)C3CCN(C(=O)C4CCCCC4)CC3)c2)cc1)C1CCCC1,-19%,-24%
Cc1ccc(Nc2nnc(SC3CCOC3=O)s2)cc1 (stereo not given),i,-12%
Cc1ccc(NS(=O)(=O)c2ccc(Br)s2)cc1S(=O)(=O)N1CCOCC1,-4%,5%
O=C1CSC(c2cn(-c3ccccc3)nc2-c2cccs2)N1CC1CCCO1 (stereo not given),·,-17%
CCOc1cc(/C=C2\SC(=N)N(c3nonc3N)C2=O)ccc1OCC(N)=O,-6%,-1%
Cc1nc(N)sc1-c1nnc(SCC(=O)Nc2nccs2)n1C,·,-30%
Cc1ccc(-c2nc(-c3cc4cccc(OCc5ccccc5F)c4oc3=O)no2)cc1,4%,-2%
O=C(COC(=O)CNC(=O)c1ccco1)Nc1ccccc1OC(F)F,-14%,-11%
Nc1nc(SCC(=O)NCCO)nc2sc3c(c12)CCCC3,-11%,-6%
CSC1=NCCN1C(=O)C(C)Oc1ccccc1 (stereo not given),7%,-13%
COc1ccc(-c2cn(Cc3ccc(C(N)=O)cc3)c(CCN)n2)cc1,i,-5%

# Further entries
Compound,VACV mCherry inh,Vaccinia Venus
CC1(C)CC2(CC(c3ccccc3F)c3cc(Cl)c(O)cc3O2)NC(=S)N1 (stereo not given),-6%,3%
COc1ccc(OC)c(-n2nnnc2SCC(=O)Nc2ccc(C(=O)N3CCCCC3)cc2)c1,-20%,-26%
CCOc1ccc(CCNC(=O)COC(=O)c2cc(=O)[nH]c3ccccc23)cc1OCC,i,-17%
Cc1cc[n+](CC(=O)c2cccs2)cc1,-11%,-13%
COc1ccc(COC(=O)c2ccc(S(=O)(=O)N3CCC(C)CC3)cc2)cc1,i,-4%
CCc1ccccc1NC(=O)CNCC(=O)Nc1ccccc1CC,-11%,2%
Cc1ccccc1OCc1nnc(SCc2cc(=O)c3cccc(F)c3[nH]2)n1C,1%,-2%
CCc1ccc(-c2nc(CS(=O)CC(=O)NCc3ccco3)c(C)o2)cc1 (stereo not given),i[7.34 µM],0%[7.34 µM]
OC(c1ccc(F)c(F)c1)c1ncc(-c2cccc(C(F)(F)F)c2)[nH]1 (stereo not given),13%,-22%
Cc1ccc(C2(c3noc(CN(C)CC4COCCO4)n3)CCCC2)cc1 (stereo not given),-9%,-15%
CNc1ccc(Cl)cc1S(=O)(=O)c1ccccc1[N+](=O)[O-],-4%,-4%
CC(c1ccon1)N(C)Cc1cn(C)nc1-c1cccc(Cl)c1 (stereo not given),i,-8%
Cc1ccc(NC(NC(=O)Cc2ccccc2)C(Cl)(Cl)Cl)cc1 (stereo not given),-9%,-24%
COc1cccc2c(=O)n(CC(=O)N3CCc4ccccc43)ccc12,-19%,-6%
Cc1ccc(CNC(=O)Cc2ccc(NC(=O)N3CCSc4ncccc43)cc2)cc1,-9%,-9%
CCOC(=O)CNC(=O)CN1C(=O)CCS(=O)(=O)c2ccccc21,·,-5%
CCCNC(=O)C/C(C)=N/NC(=O)COc1ccc(C)cc1Br,-4%,3%
COc1cc(/C=C2/CC(C)OC2=O)c([N+](=O)[O-])cc1OC (stereo not given),i,-11%
CCOC(=O)C1(c2ccccc2)SC(C(=O)OCC)(c2ccccc2)S1 (stereo not given),i,-8%
O=C(CN1C(=O)C2C3C=CC(C3)C2C1=O)Nc1ccc2c(c1)OCCO2 (stereo not given),-15%,-1%
COc1ccc(N(CC(=O)NCCc2ccccc2)C(=O)c2csnn2)cc1,-2%,-10%
Cc1ccc2nc(-c3ccccn3)[nH]c2c1,-11%,-7%
COc1cc2ccccc2cc1C(=O)N1CCN(c2nc3ccc(F)cc3s2)CC1,-18%,-24%
COc1ccc(CCn2c(N3CCN(Cc4ccccc4)CC3)nc3c2c(=O)[nH]c(=O)n3C)cc1,-13%,-10%
Cc1ccccc1NC(=S)NCc1ccccc1,-15%,-20%
COC(=O)c1ccc(NC(=O)C23CC4CC(C2)CC(n2cncn2)(C4)C3)cc1,-23%,-13%
O=C(c1ccc(N2C(=O)C3CC=C(Cl)CC3C2=O)cc1)N1CCCCC1 (stereo not given),5%,11%
Cc1c(C(=O)Nc2ccc(F)cc2F)nnn1-c1ccccc1Br,-29%,-30%
Cc1nn(CC(=O)Nc2ccc(Cl)cn2)c(C)c1[N+](=O)[O-],-10%,-11%
CCOc1ccccc1-c1nc(-c2ccncc2)no1,-4%,-20%
Cc1cc(C)c2c(c1)/C(=N\N=c1\sc3ccccc3n1C)C(=O)N2,?,3%
C/C(=N\Nc1nncc2ccccc12)c1ccc(O)cc1,?,-2%
CN1/C(=C\C=N\NC(=O)c2ccc(O)cc2)C(C)(C)c2ccccc21,i,38%[activator]
COc1ccc(-c2nc(C#N)c(NCCc3ccccc3)o2)cc1,-16%,-16%
CCN(CC(=O)Nc1cc(Cl)ccc1C)C(=O)COc1cccc2c1OC(C)(C)C2,-7%,-16%
CC(C)C(=O)N1CCN(c2ccccc2NC(=S)NC(=O)c2cccs2)CC1,-11%,-7%
CS(=O)(=O)c1ccc(Cl)c(NC(=O)COC(=O)Cc2c[nH]c3ccccc23)c1,-1%,-6%
O=C(CC1NCCNC1=O)Nc1ccccc1F (stereo not given),-10%,-5%
O=C(Nc1ccc(Cl)cc1)N1CCSCC1,-9%,-8%
CC(C)C[C@H]1CN(CCCC[C@@H]2CNC(=O)C(=O)N2CC2CCCCC2)C(=O)C(=O)N1CCc1ccc(O)cc1,1%,8%
CN(Cc1ccccc1)C(=O)c1ccc(NC(=O)Cc2ccc(NC(=O)C3CCCN(S(=O)(=O)c4cccc([N+](=O)[O-])c4)C3)cc2)cc1 (stereo not given),?,-19%
Cc1ccc2nc(Cl)c(C3CC(c4ccco4)=NN3S(C)(=O)=O)cc2c1 (stereo not given),-9%,-2%
CC(c1nnc(SCC(=O)Nc2sccc2C#N)n1-c1ccc(Cl)cc1)N(C)C (stereo not given),-13%,-6%
Cc1cccc(C(=O)Nc2nnc(C3=COCCO3)o2)c1,i,-15%
Cc1cc(N)n2ncc(-c3ccccc3)c2n1,-10%,-21%
COc1ccc(Cc2nnc(SCC(=O)Nc3c(C)cccc3C)[nH]c2=O)cc1,-11%,-3%
C[C@H](NC(=O)c1nc[nH]c1C(=O)N[C@@H](C)C(=O)OC(C)(C)C)C(=O)OCc1ccccc1,i,-8%
Cc1c(C)n2c(SCC(=O)N3CCCCC3)nnc2[nH]c1=O,i,0%
COc1ccccc1N1CCN(S(=O)(=O)c2c(C)sc3ncn(CC(=O)N(C)c4ccc(Cl)cc4)c(=O)c23)CC1,-9%,-2%
Cc1csc(SCC(=O)NCc2ccccc2Cl)n1,-13%,-17%

# In another format: 7 of the compounds above.
# The line under a structure holds: VACV mCherry inh	Vaccinia Venus
- CN1/C(=C\C=N\NC(=O)c2ccc(O)cc2)C(C)(C)c2ccccc21
    i	38%[activator]
- COc1ccc(-c2nc(C#N)c(NCCc3ccccc3)o2)cc1
    -16%	-16%
- CCN(CC(=O)Nc1cc(Cl)ccc1C)C(=O)COc1cccc2c1OC(C)(C)C2
    -7%	-16%
- CC(C)C(=O)N1CCN(c2ccccc2NC(=S)NC(=O)c2cccs2)CC1
    -11%	-7%
- CS(=O)(=O)c1ccc(Cl)c(NC(=O)COC(=O)Cc2c[nH]c3ccccc23)c1
    -1%	-6%
- O=C(CC1NCCNC1=O)Nc1ccccc1F (stereo not given)
    -10%	-5%
- O=C(Nc1ccc(Cl)cc1)N1CCSCC1
    -9%	-8%

# Single records, from the list above.
# Entry for COc1ccc(OC)c(NC(=O)c2oc3c(c2C)C(O)CC(C)(C)C3)c1 (stereo not given) → VACV mCherry inh: -12%; Vaccinia Venus: -13%
# Entry for O=C(CC1NCCNC1=O)Nc1ccccc1F (stereo not given) → VACV mCherry inh: -10%; Vaccinia Venus: -5%

# (next part)
Compound,VACV mCherry inh,Vaccinia Venus
CC(C)NC(=S)N/N=C/c1ccc2c(c1)OCCO2,-20%,-21%
COc1cc(NC(=O)c2cccnc2)c(Cl)cc1NC(=O)c1ccc(Cl)cc1,i,-12%
CCN1CCN(C(=S)c2ccc(OCC(=O)NCc3ccccc3)cc2)CC1,i,-2%
O=C1/C(=C\c2ccco2)SC(=S)N1Cc1ccccc1,i,-1%
O=C(NC(=S)N1CCN(CCO)CC1)C12CC3CC(CC(C3)C1)C2,-4%,-14%
O=c1c(-c2cccc(Cl)c2)c[nH]n1-c1ccccc1,i,-16%
O=C(Nc1cccc(C(=O)N2CCCCC2)c1)c1ccccc1,5%,-7%
